High-throughput results deposited in PubChem BioAssay by National Center for Advancing Translational Sciences (NCATS).
ClpP mod: qHTS Assay for Activators of ClpP. ATP-dependent Clp protease proteolytic subunit (Bacillus subtilis (strain 168)), P80244. purified B. subtilis ClpP, FRET peptide cleavage, 20 min. Potency, µM (highest dose often 57.5 µM), for the others: at the highest dose activity change, negative = active. actives 1.9% (n = 340,000). AID 651965, 2013; active = well fitted falling curve with a large enough effect; inconclusive = small, poorly fitted or top-dose-only effect; inactive = no such curve, though single readings can be large or run the other way; also: potency is read from the fitted curve at half-maximal effect; the source files actives as falling curves though it sought activators and does not explain the sign; nearly all actives have a fitted effect of over 65% in size; many hits overshoot -100%
Target sequence (P80244 whole entry, looked up): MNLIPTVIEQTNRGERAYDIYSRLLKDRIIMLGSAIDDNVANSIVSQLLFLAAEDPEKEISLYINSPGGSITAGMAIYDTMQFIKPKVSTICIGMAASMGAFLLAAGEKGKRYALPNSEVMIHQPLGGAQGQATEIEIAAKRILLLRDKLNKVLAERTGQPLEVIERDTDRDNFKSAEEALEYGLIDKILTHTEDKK
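ClpP 10 microg/mL final, pH 8 Tris/KCl buffer with BSA, glycerol, Tween-20; compound pinned in; FRET-FV substrate; RT 20 min; Ex320/Em430; ΔFRET vs ADEP 5.8 microM, DMSO, no enzyme.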
TRPML1 agonist: activates the human TRPML1 channel. TRPML1-expressing cells, Ca2+ dye fluorescence, FDSS; host cell line not named in the record; reference of the full effect not given here. activation, % (test concentration not listed). AID 624414. Q9GZU1. actives 0.12% (n = 410,000); in the data active = activation above about 50%; inconclusive = about 30% to 50%; inactive = below about 30%; also: 0% is about no effect; the text of the record puts the active cut at 80%
Target sequence (Q9GZU1 whole entry, looked up): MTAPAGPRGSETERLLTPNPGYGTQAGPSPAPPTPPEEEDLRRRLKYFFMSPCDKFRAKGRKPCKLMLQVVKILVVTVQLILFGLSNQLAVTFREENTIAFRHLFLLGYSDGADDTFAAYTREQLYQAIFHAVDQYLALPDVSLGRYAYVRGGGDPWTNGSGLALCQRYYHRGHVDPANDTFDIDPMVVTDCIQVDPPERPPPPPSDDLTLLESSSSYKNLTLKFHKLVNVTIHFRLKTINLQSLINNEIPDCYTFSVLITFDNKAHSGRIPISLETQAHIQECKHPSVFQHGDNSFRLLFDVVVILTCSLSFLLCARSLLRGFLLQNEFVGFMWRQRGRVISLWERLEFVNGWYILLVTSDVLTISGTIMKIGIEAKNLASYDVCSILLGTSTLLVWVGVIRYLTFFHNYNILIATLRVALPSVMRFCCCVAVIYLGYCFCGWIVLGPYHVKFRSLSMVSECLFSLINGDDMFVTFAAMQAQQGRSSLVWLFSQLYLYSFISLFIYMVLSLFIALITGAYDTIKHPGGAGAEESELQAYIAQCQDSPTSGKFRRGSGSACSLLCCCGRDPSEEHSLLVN
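Tetracycline-induced TRPML1-DL cells are seeded and incubated overnight before loading with a no-wash Ca2+ dye and quencher. Agonist activity is taken from the 110 s fluorescence read following compound pin-transfer on an FDSS, before EC80 54-4 challenge.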
TRPML1 blocker: blocks the human TRPML1 channel. actives 0.02% (n = 390,000). AID 624415. activity change, negative = inhibition, % (test concentration not listed). TRPML1-inducible cells, Ca2+ dye fluorescence, FDSS; stronger effect = lower value; inhibition of EC80 agonist-evoked calcium signal; in the data active means activity change below about -50%; inconclusive means about -30% to -50%; inactive means above about -30%;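 also: stimulus is agonist 54-4 at its EC80 concentration; % is scaled to controls: 0 for no effect and ±100 for the full control effect; compound concentration not given in the record; the text of the record puts the active cut at -80%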
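TRPML1-DL cells, Tet-induced overnight (~16 h, 37 °C) at 1,500 cells/well, were loaded with Ca8 no-wash dye plus quencher for 45-90 min at room temperature. Compounds were pinned during FDSS kinetic reading; agonist 54-4 at EC80 (4 uM final) then added.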
Menin-MLL FL inh: displaces fluorescein MLL peptide from human menin; FP activity change, % at 61.4 µM; 290,000 tested, under 10 active; Fluorescence polarization, fluorescein-MLL peptide displacement from menin; inconclusive = falling polarisation curve, or a change in total fluorescence; inactive = total fluorescence flat and polarisation flat or rising; no compound was filed as active; the % refers to the polarisation; negative = inhibition;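 also: % of control where 0% means no effect; inhibitors lower the polarisation; unlabelled MLL peptide was the positive control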
gsp ag: activates gsp, the McCune-Albright syndrome mutation. gsp mutant cells, cAMP HTRF, 30 min; control for the full effect not named in the record. Potency, µM (titrated, usually from 76.9 µM), inactives show at the highest dose activation (cAMP increase), most hits filed as activators. actives 0.13% (n = 340,000); active = well fitted activation curve with a large enough effect; inconclusive = small, poorly fitted or top-dose-only effect, or another doubt; inactive = no such curve, though single readings can be large or run the other way; cell line not stated here;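 also: phosphodiesterase inhibitor Ro 20-1724 added with compounds to block cAMP breakdown; potency is read from the fitted curve at half-maximal effect; nearly all actives have a fitted effect of over 60% in size; about a fifth of the inactives were tested at one dose only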
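Cells in DMEM/10% FBS with G418 were pretreated with compounds in DMSO plus […] (300 uM stock) for 30 min at 37C. cAMP was measured by HTRF (cAMP-d2 plus anti-cAMP antibody-K) after 30 min at room temperature.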
gsp antag: antagonists of gsp mutant (McCune-Albright syndrome); gsp-mutant cells, cAMP HTRF, 30 min; control for the full effect not named in the record; Potency, µM (doses to about 76.9 µM), inactives show at the highest dose activity change, negative = inhibition, hits mostly inhibitors; actives 0.4% (n = 340,000); AID 624288; active = falling curve of any shape with a large fitted effect; inconclusive = falling curve, mostly with a smaller effect; inactive = flat or rising curve; cell line not stated here;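 also: intracellular cAMP measured with PDE inhibitor Ro 20-1724 present during compound exposure; potency is read from the fitted curve at half-maximal effect; % is scaled to controls: 0 for no effect and ±100 for the full control effect; nearly all actives have a fitted effect of over 65% in size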
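Cells in G418 medium, seeded 16-24 h, 37C; buffer exchange to DPBS + 1 mM CaCl2, 0.5 mM MgCl2, 0.05% BSA; cpds in DMSO + […] (300 uM stock), 30 min 37C; HTRF cAMP detection.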
Starred values were filed as active, the others as inactive; ? = inconclusive; / = not tested or not shown; & = joins results of further samples; [ ] = another dose, or the depositor's remark.

SMILES	ClpP mod	TRPML1 agonist	TRPML1 blocker	Menin-MLL FL inh	gsp ag	gsp antag
O=C(Nc1ccc(Cl)c(C(F)(F)F)c1)[C@@H]1CC=C[C@@H]2CCN(Cc3ccccc3)C(=O)[C@@H]21	0.4%&-2.7%	1.6&0.0	56.0	/	-29.2%	-2.3%
CCOc1ccc(CNC(=O)c2sc3ncnc(N(C)C4CCCCC4)c3c2C)cc1	-12.2%	0.2	13.6	/	/	/
COc1ccc(/C=C/C(=O)NC(=S)Nc2ccccc2C(=O)NC2CCCCC2)cc1	-14.7%	-0.1	-1.7	-0.2	1.4%	-1.1%
CCCCOc1ccc(C(=O)NCC(=O)NCC(c2ccc(F)cc2)N2CCOCC2)cc1 (stereo not drawn)	-1.0%	-0.2	-7.6	/	-3.3%	14.4%
O=C(c1ccncc1)N1CCN(S(=O)(=O)c2cccc(F)c2)CC1	-1.3%	0.0	-1.9	/	-5.6%	9.8%
CCCOc1ccc(N2C(=O)CC(N(CCCO)C(=O)CC)C2=O)cc1 (stereo not drawn)	-0.5%	-0.6	-4.6	4.3	-5.9%[15.4 µM]	8.9%
CCOc1ccccc1NC(=O)COC(=O)C1CC1	-1.4%	0.0	-7.7	1.3	-3.0%[15.4 µM]	-14.2%
CCOC(=O)Cc1csc(NC(=O)/C=C/c2ccc(OC)cc2)n1	/	-0.1	-7.4	1.7	-0.4%	-4.6%
CCc1ccc(NC(=S)Nc2cccc(OC)c2)cc1	-0.9%	-1.0	-15.5	3.0	0.0%	-0.4%
COc1ccc(N2CC(NC(=O)/C=C\c3ccccc3)CC2=O)cc1 (stereo not drawn)	-0.8%	0.1	-10.5	/	/	/
Cc1[nH]c2ccccc2c1/C=N/NC(=O)c1cc(C(C)C)[nH]n1	-1.4%	1.2	2.5	18.3	-43.2%[inhibitor]	-6.2%
Cc1ccc2[nH]c3c(c2c1)CCNC3=O	/	1.1	5.3	-3.0	3.6%[15.4 µM]	-2.8%
Cc1cc(NS(=O)(=O)c2ccc(NC(NC(=O)C(C(F)(F)F)C(F)(F)F)(C(F)(F)F)C(F)(F)F)cc2)no1	-1.3%	-1.0	10.7	5.0	-1.1%	6.2%
CCCCc1nc2ccccc2n2c(-c3ccc(C)cc3)c3c(=O)n(C)c(=O)n(C)c3c12	-14.0%	-0.9	14.3	/	/	/
Cc1cc(-c2nn(-c3ccccc3)cc2/C=C2\SC(N)=NC2=O)ccc1OC(C)C	-1.0%	-0.3	-0.6	7.1	-24.3%	26.1%
CCOC(=O)c1c(C)[nH]c(CCC(=O)NCc2cc(Br)ccc2OC)c1C	-2.9%	3.8	-1.9	/	/	/
CC(C)(C)NC(=O)COC(=O)c1cc(F)c(F)cc1Cl	0.8%	0.6	1.0	0.2	-24.5%	12.8%
CN(Cc1nnc(-c2ccc(F)cc2)o1)c1ccccc1	/	-0.1	5.0	/	-5.2%[15.4 µM]	-2.1%
CC(C)(C)n1ncc2c(=O)n(Cc3ccc(Cl)c(Cl)c3)cnc21	/	0.1&1.3	15.8&4.8	-1.6	5.0%[15.4 µM]	-4.4%
NS(=O)(=O)c1ccc(CCNC(=O)CSc2ccc([N+](=O)[O-])cc2)cc1	/	-0.5	-9.3	-5.2	0.3%	4.3%
CCCOC(=O)c1ccc(NC(=O)C2CCCO2)cc1 (stereo not drawn)	0.1%	3.3	8.4	4.7	?	16.0%
CC(NC(=O)Cc1ccc(S(=O)(=O)N2CCOCC2)s1)c1ccc(Br)cc1 (stereo not drawn)	-2.9%	0.5	5.4	/	11.5%	-8.7%
O=C(CSc1nnc(COc2cccc3ccccc23)o1)N1c2ccccc2CCc2ccccc21	-2.3%	-0.4	-1.0	4.3	-0.6%	17.4%
COCCNC(=S)N/N=C/c1c(C)[nH]c2ccccc12	-4.9%	0.4	2.0	17.5	-28.2%	-11.2%
COc1ccc(CN(CCCn2cnc3c(OC)ncnc32)CCCn2cnc3c(OC)ncnc32)cc1	1.7%	-0.2	21.7	/	-30.4%[inhibitor]	/
Cc1ccc(NC(=O)O/N=C/c2ccc(Br)cc2)cc1	/	0.6	24.2	-2.3	-15.4%	-1.4%
O=C1c2ccccc2NC(c2cccs2)N1NS(=O)(=O)c1ccccc1 (stereo not drawn)	/	1.1	12.0	-0.1	8.9%	-14.2%
CCOc1ccc(N2CC(C(=O)N3CCN(C(=O)c4ccco4)CC3)CC2=O)cc1 (stereo not drawn)	0.0%	-1.5	-8.7	-0.4	-1.3%[15.4 µM]	-15.2%
Cc1ccc(S(=O)(=O)N2CCOC2CNC(=O)C(=O)NCCCN2CCOCC2)cc1 (stereo not drawn)	?	0.4	18.5	/	5.8%	5.9%
O=C(NCc1ccccc1Cl)c1cnc2ccccc2n1	/	1.3	8.1	7.4	0.5%[15.4 µM]	-20.1%

Complete entries, quoted from the list. Order of values: ClpP mod, TRPML1 agonist, TRPML1 blocker, Menin-MLL FL inh, gsp ag, gsp antag
Record of Cc1ccc(S(=O)(=O)N2CCOC2CNC(=O)C(=O)NCCCN2CCOCC2)cc1 (stereo not drawn) : ?, 0.4, 18.5, /, 5.8%, 5.9%
Record of CCCOc1ccc(N2C(=O)CC(N(CCCO)C(=O)CC)C2=O)cc1 (stereo not drawn) : -0.5%, -0.6, -4.6, 4.3, -5.9%[15.4 µM], 8.9%

Further compounds
SMILES	ClpP mod	TRPML1 agonist	TRPML1 blocker	Menin-MLL FL inh	gsp ag	gsp antag
CCC(CO)Oc1cc(NCc2ccccc2)c2ncn(C3CCCC3)c2c1 (stereo not drawn)	-3.9%	0.0	12.5	/	/	-7.4%
CC1CCC2C(=O)N(c3ccccc3OC(=O)c3ccccc3F)C(=O)C2C1 (stereo not drawn)	/	0.7	1.7	2.8	-15.9%[15.4 µM]	7.5%
COc1ccc(-c2oc(/N=C/N3CCOCC3)c(C#N)c2-c2ccc(OC)cc2)cc1	-3.9%	0.5	3.6	7.8	10.8%	?
CCOC(=O)c1[nH]c2ccccc2c1NC(=S)Nc1ccccc1	-15.1%	-1.0	1.9	0.5	?	-24.5%
Cc1nn(S(=O)(=O)c2cccs2)c(C)c1Sc1ccc([N+](=O)[O-])cc1	1.2%	2.6	78.5	2.0	-4.1%	25.1µM*
O=C(NCCCN1CCOCC1)c1cn(-c2ccccc2)nc1-c1cccs1	-28.0%	-0.3	-9.5	-3.2	1.9%	2.3%
CC(C)(C)NC(=O)Cn1c(SCC(=O)NC2CCCCC2)nc2ccccc21	0.7%	2.9	-14.5	5.6	5.8%	-6.6%
COc1ccc(C)cc1Nc1nc(-c2cccc(Cl)c2)c2c(n1)-c1ccccc1OC2	0.7%	0.9	15.7	/	/	/
Cc1ccc(Cn2c(=S)[nH]c3ccc(N4CCOCC4)cc3c2=O)o1	26.4%	-0.1	-8.4	9.0	?	17.1%
COc1ccc(NC(=O)CSc2cn[nH]n2)cc1OC	/	0.8	-21.6	-0.6	-15.2%[15.4 µM]	10.3%
CON(C)C(=O)/C=C/CCCCNC(=O)OC(C)(C)C	-0.1%	0.8	-23.0	/	1.9%	-4.2%
COC(=O)CNC(=O)C1CCN(C(=O)OCc2ccccc2)CC1	-0.9%	0.3	49.1	-0.4	18.8%	9.3%
Fc1ccc(-c2nc(-c3cnccn3)no2)c(Cl)c1	/	0.4	15.5	-0.1	5.2%[15.4 µM]	-2.3%
CCOC(=O)c1c(NC(=O)COc2ccccc2)sc(C(C)=O)c1C	-1.7%	2.5	11.9	/	/	/
O=C(NCC1CCCO1)C(c1cccs1)N(C(=O)c1ccc(CN2CCOCC2)o1)c1ccc(Cl)cc1 (stereo not drawn)	-4.7%	0.0	-3.4	0.5	17.3%	1.6%
CN(CCO)CC(O)Cn1cnc2c1c(=O)n(C)c(=O)n2C (stereo not drawn) (tested in a mixture with another compound)	-0.2%	-0.8	0.8	1.1&-4.0	/	-17.5%
O=C(O)c1cccc(-c2ccc(/C=N/Nc3ccc([N+](=O)[O-])cc3)o2)c1	/	?	-2.7	?	-23.9%[15.4 µM]	?
CN(C)C(=O)COC(=O)c1ccccc1Sc1ccccc1C#N	/	-0.6	1.0	2.6	-7.5%[15.4 µM]	4.9%
CCCc1ccc2oc(C(=O)N3CCC(COC)C3)c(C)c2c1 (stereo not drawn)	-4.4%	2.0	48.2	-4.5	-11.8%[15.4 µM]	-19.5%
CCC(CC)n1c(C)cc(=O)n1C(CC)CC	-5.3%	0.2	2.1	/	4.1%	11.5%
CC(=O)c1ccc(NS(=O)(=O)c2ccc(Br)s2)cc1	-6.5%	-1.3	-1.3	/	/	/
CC(C)CO/C(=N/S(=O)(=O)c1ccccc1)c1ccccc1	4.7%	0.0	2.4	1.7	-12.2%	2.5%

Molecules listed so far containing an NH in an aromatic ring, in the order listed:
SMILES	ClpP mod	TRPML1 agonist	TRPML1 blocker	Menin-MLL FL inh	gsp ag	gsp antag
Cc1[nH]c2ccccc2c1/C=N/NC(=O)c1cc(C(C)C)[nH]n1	-1.4%	1.2	2.5	18.3	-43.2%[inhibitor]	-6.2%
Cc1ccc2[nH]c3c(c2c1)CCNC3=O	/	1.1	5.3	-3.0	3.6%[15.4 µM]	-2.8%
CCOC(=O)c1c(C)[nH]c(CCC(=O)NCc2cc(Br)ccc2OC)c1C	-2.9%	3.8	-1.9	/	/	/
COCCNC(=S)N/N=C/c1c(C)[nH]c2ccccc12	-4.9%	0.4	2.0	17.5	-28.2%	-11.2%
CCOC(=O)c1[nH]c2ccccc2c1NC(=S)Nc1ccccc1	-15.1%	-1.0	1.9	0.5	?	-24.5%
Cc1ccc(Cn2c(=S)[nH]c3ccc(N4CCOCC4)cc3c2=O)o1	26.4%	-0.1	-8.4	9.0	?	17.1%
COc1ccc(NC(=O)CSc2cn[nH]n2)cc1OC	/	0.8	-21.6	-0.6	-15.2%[15.4 µM]	10.3%
